Bioassay records deposited in PubChem by Broad Institute.
rRNA inh HTS: reduced GFP signal of wild-type E. coli, primary screen, bacterial rRNA inhibitor project, GFP/RFP fluorescence, OD600, single point. E. coli WT GFP vs humanized-ribosome RFP mutants, 24 h; hits give low values; DMSO median 0, no signal -100. GFP signal change (wild-type ribosome), % (concentration not given with the values). 1.6% of 350,000 active;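 active = significant combined selectivity score with lowered wild-type GFP, culture density cut under 30%, mutant RFP and density less affected; inactive = any of these conditions unmet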; note: one replicate is shown; some compounds called inactive have numbers as strong as hits
FGF22 binding: binders of human FGF22 protein, primary screen, FGF22 synaptogenesis inhibitor project, biophysical, thermal shift, single point | recombinant FGF22 thermal shift, SYPRO orange fluorescence; percent of sucrose octasulfate shift, DMSO zero | calls only at 9.99 µM | Fibroblast growth factor 22 (Homo sapiens), Q9HCT0 | 1.5% of 340,000 active;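 active = melting point raised past a set limit in the mean and every replicate; three in four hits are not shown here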
Target sequence (Q9HCT0 whole entry, looked up): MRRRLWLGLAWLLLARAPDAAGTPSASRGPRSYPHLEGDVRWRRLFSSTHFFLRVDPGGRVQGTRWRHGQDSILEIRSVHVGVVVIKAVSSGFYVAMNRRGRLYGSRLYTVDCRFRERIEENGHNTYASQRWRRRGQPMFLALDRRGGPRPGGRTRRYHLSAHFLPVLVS
rRNA inh HTS OD600: recorded beside rRNA inh HTS, whose call it bears; OD600 change, %; measured here: OD600 growth;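 optical density of the mix in the first replicate; 0 = DMSO median and -100 = no signal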
rRNA inh HTS RFP: also measured in rRNA inh HTS; calls as there; RFP signal change, %; measured here: RFP humanized mutant strains;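 first replicate; 0 = DMSO median and -100 = no signal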
Numbers without * were called inactive; i = inactive; . = no result given; & = joins results of further samples. Only part of the results is shown, so the mix of outcomes need not match the whole.

SMILES	rRNA inh HTS	rRNA inh HTS OD600	rRNA inh HTS RFP	FGF22 binding
c1ccc(Cc2cnc(N3CCN(Cc4csc5ccccc45)CC3)nc2)cc1	5	0	4.5	i
Cc1ccccc1-c1ccc(C2[C@@H]3CN(Cc4cocn4)C[C@H]2N3)cc1 (some centres undefined)	5&-8	1&5	-0.7&1.3	i
O=C(N[C@H](C(=O)N1CCC[C@H]1C(=O)NC1CCCC1)C1CCCCC1)c1ccc(Cl)cc1Cl	-28*	-20*	-2.5*	i
CN1CCCCC(NC(=O)c2ccc(F)c(F)c2)C1=O (centres undefined)	9	15	2.1	i
C[C@H]1CCCCO[C@H](CN(C)C(=O)CCC(F)(F)F)[C@@H](C)CN([C@@H](C)CO)C(=O)c2cc(NC(=O)c3ccncc3)ccc2O1	-3	-1	0.2	i
C[C@H]1CN([C@@H](C)CO)C(=O)c2cc(NC(=O)Nc3ccc4c(c3)OCO4)ccc2O[C@@H]1CN(C)C(=O)Nc1ccccc1	6	-3	-1.9	i
CN1C(=O)c2cc(NC(=O)C3CC3)ccc2OC[C@@H]2O[C@@H](CC(=O)NCc3cccc(F)c3)CC[C@H]21	3	10	4.5	i
C[C@H](CO)N1C[C@H](C)[C@@H](CN(C)C(=O)CCCN(C)C)OCCCC[C@H](C)Oc2ccc(NC(=O)Nc3ccc(C(F)(F)F)cc3)cc2C1=O	1	-35	31	i
Cc1cc(O)cc(=O)n1-c1cccc([N+](=O)[O-])c1	11	18	0.2	i
O=C(C[C@H]1CC[C@@H]2NC[C@H](O)COC[C@H]2O1)Nc1nccs1	3	5	-6.2	i
COC(=O)C1=C(C)N(Cc2ccccc2C(F)(F)F)C(=NCc2ccc(C(F)(F)F)cc2)NC1c1cccc(F)c1 (centres undefined)	-6	2	17	i
CCCC(=O)Nc1ccc2c(c1)C(=O)N(C)[C@@H]1CC[C@@H](CC(=O)NCCOC)O[C@@H]1CO2	1	1	-1.6	i
C[C@H](O)[C@@H]1CN2CCc3ccc(-c4ccc5c(c4)OCO5)cc3[C@@H]2C[C@@H]1N(C)Cc1cc(Cl)cc(Cl)c1	28	28	6.6	i
CC(C)C(=O)Nc1ccc2c(c1)C(=O)N(C)[C@@H]1CC[C@@H](CC(=O)NCCc3ccccc3)O[C@@H]1CO2	2	3	1.4	i
O=C(NCc1ccccc1)C(c1ccc(F)cc1)N1CCN(CCN2CCOCC2)CC1 (centres undefined)	7	3	0.1	i
Cc1noc(C)c1NC(=O)Nc1ccc2c(c1)C(=O)N([C@H](C)CO)C[C@@H](C)[C@H](CN(C)Cc1ccc3c(c1)OCO3)OCCCC[C@@H](C)O2	4	5	-0.7	i
O=C(C[C@H]1CC[C@H]2[C@@H](COC[C@H](O)CN2Cc2cc(F)ccc2F)O1)NCc1ccc(Oc2ccccc2)cc1	-5	-24	2.7	i
CCCNC(=O)C[C@@H]1C[C@@H]2c3cc(NC(=O)c4cccnc4)ccc3O[C@@H]2[C@H](CO)O1	2	4	-0.3	i
COc1cc(CN2C[C@@H]3N[C@H](C2)C3c2ccc(-c3ccc(C#N)cc3)cc2)cc(OC)c1 (some centres undefined)	-56&-57	-77&-74	-16&-16	i
COCC(=O)Nc1ccc2c(c1)C(=O)N(C)[C@H]1CC[C@@H](CC(=O)Nc3cn(C)nc3C)O[C@@H]1CO2	2	10	-1.7	i

5 of the entries above in order of the rRNA inh HTS RFP value, low to high.
| Structure | rRNA inh HTS | rRNA inh HTS OD600 | rRNA inh HTS RFP |
| --- | --- | --- | --- |
| C[C@H]1CN([C@@H](C)CO)C(=O)c2cc(NC(=O)Nc3ccc4c(c3)OCO4)ccc2O[C@@H]1CN(C)C(=O)Nc1ccccc1 | 6 | -3 | -1.9 |
| COCC(=O)Nc1ccc2c(c1)C(=O)N(C)[C@H]1CC[C@@H](CC(=O)Nc3cn(C)nc3C)O[C@@H]1CO2 | 2 | 10 | -1.7 |
| CCCNC(=O)C[C@@H]1C[C@@H]2c3cc(NC(=O)c4cccnc4)ccc3O[C@@H]2[C@H](CO)O1 | 2 | 4 | -0.3 |
| C[C@H]1CCCCO[C@H](CN(C)C(=O)CCC(F)(F)F)[C@@H](C)CN([C@@H](C)CO)C(=O)c2cc(NC(=O)c3ccncc3)ccc2O1 | -3 | -1 | 0.2 |
| CN1CCCCC(NC(=O)c2ccc(F)c(F)c2)C1=O (centres undefined) | 9 | 15 | 2.1 |

(further entries)
SMILES	rRNA inh HTS	rRNA inh HTS OD600	rRNA inh HTS RFP	FGF22 binding
COC(=O)/C=C1\OC(C)c2ccccc21 (centres undefined)	5	13	1.3	i
C[C@H](CO)N1C[C@H](C)[C@H](CN(C)C(=O)Nc2ccc3c(c2)OCO3)Oc2c(NC(=O)Nc3ccc(C(F)(F)F)cc3)cccc2C1=O	-5	-1	-1.6	i
COC(=O)C[C@@H]1CC[C@@H]2[C@H](COC[C@@H](O)CN2S(=O)(=O)c2cn(C)cn2)O1	3	23	-0.6	i
O=C(C1CCOCC1)N1C[C@@H]2N[C@H](C1)C2c1ccc(/C=C/c2ccccc2)cc1 (some centres undefined)	-5&-2	2&-2	3.0&0.5	i
CCCN1[C@@H]2Cn3c(ccc(-c4ccccc4F)c3=O)[C@H]1[C@@H](C(=O)NCCOC)[C@@H]2CO	0	-4	-1.1	i
CN1CCN(C(=O)C[C@H]2C[C@@H]3c4cc(NC(=O)c5cccnc5)ccc4O[C@@H]3[C@H](CO)O2)CC1	1	-6	-3.4	i
COCCNC(=O)C[C@@H]1CC[C@@H]2[C@@H](COc3ccc(NC(C)=O)cc3C(=O)N2C)O1	4	3	-0.8	i
COc1ccc(S(=O)(=O)N(C)C[C@H]2Oc3ccc(NS(=O)(=O)c4ccc(Cl)cc4)cc3CC(=O)N([C@H](C)CO)C[C@H]2C)cc1	-4	-7	0.6	i
CCNC(=O)C[C@@H]1CC[C@@H]2[C@H](COc3ccc(NC(=O)c4cccc(C(F)(F)F)c4)cc3C(=O)N2C)O1	0	3	0.2	i
Cn1cc([C@]2(O)C(=O)Nc3ccccc32)c2ccccc21	11	-5	2.0	i
C[C@H](CO)N1C[C@H](C)[C@H](CN(C)C(=O)Nc2ccc(C(F)(F)F)cc2)Oc2ccc(NC(=O)Nc3ccc(F)cc3)cc2CC1=O	-3	-5	1.5	i
C[C@@H]1CN([C@H](C)CO)C(=O)c2cc(NC(=O)Cc3ccccc3)ccc2O[C@@H](C)CCCCO[C@@H]1CN(C)Cc1ccc(C(F)(F)F)cc1	2	-5	2.0	i
Cc1noc(C)c1S(=O)(=O)Nc1ccc2c(c1)C(=O)N([C@H](C)CO)C[C@@H](C)[C@@H](CN(C)S(=O)(=O)c1cccs1)OCCCC[C@@H](C)O2	-3	-11	0.9	i
Nc1ccn([C@@H]2O[C@H](C(=O)N[C@H]3CCCCNC3=O)[C@@H](O)[C@H]2O)c(=O)n1	23	2	2.7	i
COc1ccccc1C#Cc1ccc2c(c1)[C@H]1[C@H](CCN1S(=O)(=O)c1ccc(C)cc1)[C@H](CO)N2	0	9	4.9	i
COc1ccccc1C(=O)Nc1ccc2c(c1)C(=O)N(C)[C@@H]1CC[C@@H](CC(=O)NCCc3ccncc3)O[C@@H]1CO2	4	-9	0.0	i
O=C(NC1CCCCC1)c1nc(-c2c(F)cccc2F)oc1-c1ccccc1	7	15	-0.9	i
C[C@@H]1CCCCO[C@@H](CN(C)C(=O)Nc2ccc3c(c2)OCO3)[C@H](C)CN([C@H](C)CO)C(=O)c2cc(NS(=O)(=O)c3ccc(F)cc3)ccc2O1	1	3	5.2	i
C[C@H](CO)N1C[C@H](C)[C@@H](CN(C)C(=O)Nc2ccc(C(F)(F)F)cc2)Oc2ccc(NC(=O)Nc3ccccc3)cc2CC1=O	-3	-2	-0.5	i
Cn1cnc(S(=O)(=O)N2C[C@H](O)COC[C@@H]3O[C@H](CC(=O)NCc4cccc(F)c4)CC[C@H]32)c1	i	.	.	i
COc1ccc(NC(=O)C[C@H]2CC[C@H]3[C@@H](COc4ccc(NC(=O)C5CC5)cc4C(=O)N3C)O2)cc1	-6	-8	1.0	i
CN1C(=O)c2cc(NC(=O)Nc3ccccc3F)ccc2OC[C@H]2O[C@H](CC(=O)O)CC[C@H]21	3	5	-1.7	i
CN(C(=O)[C@H]1O[C@@H](n2cnc(C(N)=O)n2)[C@H](O)[C@@H]1O)c1ccccc1	28	11	1.9	i
CN1C(=O)c2cc(NC(=O)Cc3ccccc3)ccc2OC[C@@H]2O[C@H](CC(=O)NCc3ccc(Cl)cc3)CC[C@H]21	-5	-10	4.0	i
C[C@@H]1CN([C@H](C)CO)C(=O)c2cc(NC(=O)c3ccccc3)ccc2O[C@@H](C)CCCCO[C@H]1CN(C)C(=O)NC1CCCCC1	4	-8	2.8	i
COc1ccc(S(=O)(=O)Nc2ccc3c(c2)C(=O)N([C@H](C)CO)C[C@@H](C)[C@@H](CN(C)C(=O)Nc2ccccc2)OCCCC[C@@H](C)O3)cc1	0	5	-1.9	i
CNC(=O)C[C@H]1CC[C@@H]2[C@H](COc3ccc(NC(=O)C4CC4)cc3C(=O)N2C)O1	-1	4	-1.6	i
COC(=O)C1=C(C)N(Cc2ccccc2C(F)(F)F)C(=NCc2ccccc2)NC1c1ccc(C(F)(F)F)cc1 (centres undefined)	-33	-63	5.0	i
Cc1ccc(S(=O)(=O)N(C)C[C@H]2OCCCC[C@H](C)Oc3ccc(NC(=O)C4CCCCC4)cc3C(=O)N([C@H](C)CO)C[C@@H]2C)cc1	-1	2	0.4	i
C[C@@H]1CN([C@@H](C)CO)C(=O)c2cc(NC(=O)c3ccccc3)ccc2O[C@@H](C)CCCCO[C@@H]1CN(C)C(=O)NC1CCCCC1	-4	-12	0.4	i
C[C@@H]1CCCCO[C@@H](CN(C)S(C)(=O)=O)[C@H](C)CN([C@@H](C)CO)C(=O)c2cc(NS(C)(=O)=O)ccc2O1	2	6	-0.6	i
Cc1noc(C)c1NC(=O)Nc1ccc2c(c1)C(=O)N([C@@H](C)CO)C[C@@H](C)[C@H](CN(C)Cc1ccc3c(c1)OCO3)OCCCC[C@H](C)O2	1	4	0.6	i
COc1cccc(-c2ccc3c(c2)[C@H]2[C@H](CCN2C(=O)C2CCC2)[C@H](CO)N3)c1	1	-10	26	i
CS(=O)(=O)Nc1ccc2c(c1)[C@@H]1C[C@@H](CC(=O)N3CCCCC3)O[C@@H](CO)[C@@H]1O2	3	8	-1.0	i
C[C@@H]1CN([C@H](C)CO)C(=O)c2cc(NC(=O)Nc3ccc(F)cc3)ccc2O[C@@H](C)CCCCO[C@H]1CN(C)Cc1ccncc1	1	-6	1.6	i
C[C@H](CO)N1C[C@H](C)[C@@H](CN(C)C(=O)Nc2ccc(C(F)(F)F)cc2)OCCCC[C@H](C)Oc2ccc(NC(=O)Nc3ccc(C(F)(F)F)cc3)cc2C1=O	-3	6	-2.7	i
O=C(C[C@H]1CC[C@@H]2[C@H](COC[C@@H](O)CN2C(=O)Nc2ccc(F)cc2)O1)NC1CCC1	-6	2	-2.0	i
CN1C(=O)c2cc(NC(=O)c3cscn3)ccc2OC[C@H]2O[C@@H](CC(=O)NCC3CC3)CC[C@H]21	0	1	-2.3	i
C[C@@H]1CN([C@@H](C)CO)C(=O)c2cc(NC(=O)Nc3ccccc3)ccc2O[C@@H](C)CCCCO[C@H]1CN(C)C(=O)Nc1cccc2ccccc12	0	8	-0.7	i
O=C(/C=C(\Nc1ccc(Cl)c(C(F)(F)F)c1)c1ccccc1)c1ccccc1	-9	-17	-1.2	i

For reference, part of the list above:
SMILES	rRNA inh HTS	rRNA inh HTS OD600	rRNA inh HTS RFP	FGF22 binding
c1ccc(Cc2cnc(N3CCN(Cc4csc5ccccc45)CC3)nc2)cc1	5	0	4.5	i
Cc1ccccc1-c1ccc(C2[C@@H]3CN(Cc4cocn4)C[C@H]2N3)cc1 (some centres undefined)	5&-8	1&5	-0.7&1.3	i
O=C(N[C@H](C(=O)N1CCC[C@H]1C(=O)NC1CCCC1)C1CCCCC1)c1ccc(Cl)cc1Cl	-28*	-20*	-2.5*	i

Further records follow:
SMILES	rRNA inh HTS	rRNA inh HTS OD600	rRNA inh HTS RFP	FGF22 binding
O=C(C[C@H]1CC[C@@H]2[C@H](COC[C@H](O)CN2CCC(F)(F)F)O1)NCC1CCCCC1	-2	-1	-2.4	i
O=C(C[C@@H]1C[C@H]2c3cc(NS(=O)(=O)c4ccc(F)cc4)ccc3O[C@H]2[C@H](CO)O1)NCC1CC1	-4	-12	-1.1	i
C[C@@H]1CN([C@H](C)CO)C(=O)c2cc(NC(=O)Nc3ccc(F)cc3)ccc2O[C@@H](C)CCCCO[C@H]1CN(C)S(C)(=O)=O	0	-4	3.6	i
CC(=O)C[C@@H]1OC2CCCCC2N1S(=O)(=O)c1ccc(C)cc1 (some centres undefined)	9	23	3.7	i
O=C(C[C@H]1CC[C@H]2[C@@H](COC[C@H](O)CN2C(=O)Nc2cc(Cl)cc(Cl)c2)O1)N1CCOCC1	i	.	.	i
CCc1cccc(Nc2cc(C)n(-c3cccc(CC)c3)c(=O)c2)c1	35	16	7.8	i
